HSV augment: enhancers of HSV replication in host cells, fold increase, host cell viability; HSV replication augmentation in cells; maximum fold increase; 0.005% of 220,000 active;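 active = peak rise of 1.5-fold or more in the series; inconclusive = self-fluorescent or not available for retest; tested in PC3 cells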;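 note: first round at 10 µM; read as green reporter fluorescence; hits show the peak of a series up to 25 µM; 1 = signal of infected wells without compound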
PKD1 kinase inh: inhibitors of human PKD1 kinase, biochemical, fluorescence polarization; 0.056% of 200,000 active; inhibition, %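 (about 10 µM by stock and volumes)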; PKD1 kinase fluorescence polarization assay;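 active = inhibition of 50% or more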;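 note: controls were vehicle for no effect and a reference inhibitor for full effect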
RGS16-Gao: modulators of RGS16 binding to Galphao, primary screen, biochemical, human proteins, multiplexed bead flow cytometry; binding response (% of control), % at 10 µM; bead-based flow cytometry RGS16-Galphao binding, fluorescence; actives lie on both sides; 0.38% of 220,000 active;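 active = below 25% or above 175%, edge rows of some plates excepted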;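 note: Galphao activated by GDP with aluminum fluoride before binding; 100% = wells without compound and 0% = beads without RGS; some results beyond the cut were filed as inactive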
Target sequence (O15492 whole entry, looked up): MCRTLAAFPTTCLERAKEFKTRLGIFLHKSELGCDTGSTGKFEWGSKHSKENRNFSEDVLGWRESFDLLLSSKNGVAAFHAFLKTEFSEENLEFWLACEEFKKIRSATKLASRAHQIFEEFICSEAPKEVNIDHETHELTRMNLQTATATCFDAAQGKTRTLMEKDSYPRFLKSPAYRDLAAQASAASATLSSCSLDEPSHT
Target sequence (P09471 whole entry, looked up): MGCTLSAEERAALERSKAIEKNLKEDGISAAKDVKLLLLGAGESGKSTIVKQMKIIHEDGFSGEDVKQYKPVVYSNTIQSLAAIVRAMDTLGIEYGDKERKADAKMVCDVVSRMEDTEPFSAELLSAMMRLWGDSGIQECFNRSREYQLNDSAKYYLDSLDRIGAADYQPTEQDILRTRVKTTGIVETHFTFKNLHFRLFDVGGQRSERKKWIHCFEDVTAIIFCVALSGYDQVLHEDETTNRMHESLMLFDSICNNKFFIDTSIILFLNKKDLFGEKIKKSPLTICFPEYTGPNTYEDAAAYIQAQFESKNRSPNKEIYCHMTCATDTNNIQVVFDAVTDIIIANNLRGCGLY
GALR2 agonist: GALR2 receptor agonists, primary screen, cell-based. activation, %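 (tested at 5 µM)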. 0.48% of 140,000 active. AID 803, 2007. GALR2-expressing cells, agonist activation read-out. Galanin receptor type 2 (Homo sapiens), O43603;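 active = above mean plus 3 SD of all compounds, about 5% in these data, not always enough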;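 note: 0% = vehicle buffer wells and 100% = reference agonist at full effect; tested in CHO reporter cells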
Target sequence (O43603 whole entry, looked up): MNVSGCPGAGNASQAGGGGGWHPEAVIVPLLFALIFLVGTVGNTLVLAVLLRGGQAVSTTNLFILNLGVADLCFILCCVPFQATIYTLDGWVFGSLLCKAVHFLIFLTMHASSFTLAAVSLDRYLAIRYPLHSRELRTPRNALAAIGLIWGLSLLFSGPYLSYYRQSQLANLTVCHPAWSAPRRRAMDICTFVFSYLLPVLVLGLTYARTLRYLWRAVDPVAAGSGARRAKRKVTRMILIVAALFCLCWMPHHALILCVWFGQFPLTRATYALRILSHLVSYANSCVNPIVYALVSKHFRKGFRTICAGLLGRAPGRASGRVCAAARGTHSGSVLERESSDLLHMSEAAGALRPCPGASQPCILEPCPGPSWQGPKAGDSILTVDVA
Insulin prom inh: inhibitors of insulin promoter-driven GFP, primary screen, imaging, TRM-6 cells (human fetal islet line), eGFP reporter, cell count | reporter expression induced with tamoxifen | inhibition, % at 2 µM | 0.9% of 130,000 active;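 active = inhibition above the mean plus 3 SD, with well images judged a real hit on visual review, cut at about 60% in these data, passing the limit was not always enough; inconclusive = inhibition over the cutoff but images rejected on review; inactive = inhibition not above the cutoff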
Insulin prom inh cell count: further read-out of Insulin prom inh, marked with its call; normalized cell count, %; measured here: cell count, toxicity; reference of the scale not given here;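 cells exposed to compound for 48 h; stained nuclei by imaging scaled within each plate; lower means fewer cells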
HSV augment primary fold: second read-out of HSV augment, no call of its own (marks repeat the call); fold increase; compound at 10 µM; measured here: primary screen fold increase 10 uM; tested in PC3 cells;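 GFP signal in the first replicate; 1 = infected wells without compound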
Numbers without * were called inactive; i = inactive; ? = inconclusive; / = no result given.

Compound	HSV augment	HSV augment primary fold	PKD1 kinase inh	RGS16-Gao	GALR2 agonist	Insulin prom inh	Insulin prom inh cell count
CCOC(=O)Cc1nn(C(C)C)c(=O)c2ccccc12	i	0.96	-7	108	/	/	/
CCc1ccc2nc(SCC(=O)N3CC(=O)Nc4ccccc43)c(C#N)cc2c1	i	0.91	-3	104	0.4	-212	6
O=C(C1=C[C@@H]2[C@H]3C(=O)N(c4ccccc4Cl)C(=O)[C@H]3[C@@H](C(=O)c3ccc(Cl)cc3)N2C=C1)c1ccccc1	i	1	-12	104	-1.3	-13	118
CCCCNC(=O)/C(=C/c1ccccc1)NC(C)=O	i	0.98	-8	108	-0.7	-2	99
COc1cccc(/C=N/NC(=O)c2cccc([N+](=O)[O-])c2)c1OS(=O)(=O)c1ccc(C)cc1	i	0.67	-6	106	-0.9	/	/
O=c1[nH]c2cc3c(cc2cc1CN(Cc1cccnc1)C(=S)NCc1ccco1)OCCO3	i	1	-2	97	/	/	/
Fc1cccc(Cl)c1CSc1nnc(CNc2ccccc2)o1	i	0.86	2	103	/	/	/
O=C(NCc1ccc(Cl)cc1)C(=O)Nc1nccs1	i	0.96	-3	102	/	-8	143
CC(C)Sc1nsc2nc(=O)c(/C=C3\C=Nc4ccccc43)c(N)n12	i	0.84	-3	99	/	/	/
COc1ccc(OC)c(NC(=O)c2cc3sccc3n2C)c1	i	1.3	-9	99	-2.0	-23	84
COc1ccc(NC(=O)CSC2=C(C#N)C(c3ccco3)C3=C(CCCC3=O)N2)c(OC)c1 (stereo not given)	i	0.71	-8	104	0.5	17	88
Cc1csc(N(C(=O)c2cccc(S(=O)(=O)N3CCCC3)c2)c2ccccc2)n1	i	0.86	-2	98	-1.2	-21	114
CCCCC1S/C(=N/N=C/c2cccs2)NC1=O (stereo not given)	i	0.89	-4	99	-1.8	7	108
Cc1ccc(NC(=O)CCNS(=O)(=O)c2ccc3c(c2)oc(=O)n3C)cc1C	i	1	-13	100	-0.5	-34	108
COc1ccc(C(=O)COc2ccccc2C(N)=O)cc1	i	0.9	3	106	/	/	/
CS(=O)(=O)c1ccc(-c2cn3cc(C(=O)O)ccc3n2)cc1	i	0.9	-2	105	/	6	130
CC(=O)N1CC=C2C(C#N)=C(N)C(C#N)(C#N)[C@H](c3ccoc3)[C@H]2C1	i	1.1	-6	106	-1.0	-338	95
CC1CCN(C(=S)c2ccc([N+](=O)[O-])cc2)CC1	i	1.2	1	95	0.4	/	/
COc1ccc(OCC(O)CN2CCN(Cc3ccc4c(c3)OCO4)CC2)cc1 (stereo not given)	i	0.96	-5	103	-1.2	-4	128
CCN(CC)CCNC(C(=O)Nc1ccc([N+](=O)[O-])cc1Br)c1ccccc1 (stereo not given)	i	0.84	-10	112	0.7	10	138
CCCn1c(SCC(=O)Nc2ccccc2C(=O)OCC)nc2c1c(=O)n(C)c(=O)n2C	/	/	-7	/	-1.4	14	127
Cc1cc(NC(=O)C2CCCC2)n(-c2nc3ccccc3[nH]2)n1	i	0.93	-8	105	2.5	-28	116
Cc1cc(C)n(C(=O)c2cccc(S(=O)(=O)N3CCCC3)c2)n1	i	0.98	-10	100	-2.2	4	63
CC1(C)CN=C(N(C(=O)Nc2ccccc2)c2ccccc2F)S1	i	1.1	/	101	/	/	/
O=C(CSc1nnnn1C1CCCCC1)N1CCOCC1	i	0.93	-4	101	/	0	114
O=C(CCS(=O)CCC(=O)NCc1ccccc1)NCc1ccccc1	i	1	9	98	-2.9	/	/
CC(C)C1CC(CCN)(Cc2ccccc2)CCO1 (stereo not given)	i	0.97	1	115	/	43	89
N/C(Cc1cccs1)=N\OC(=O)COc1ccc(Br)cc1Cl	i	1	0	99	2.1	-77	101
O=c1oc2ccccc2n1Cc1ccccc1Cl	i	0.97	5	118	/	/	/
C=CCn1c(SCC(=O)/C(C#N)=C(\C)N)nc2sc(C)c(C)c2c1=O	i	0.85	-1	100	-0.9	13	56

Record cards, from the list above. Order of values: HSV augment | HSV augment primary fold | PKD1 kinase inh | RGS16-Gao | GALR2 agonist | Insulin prom inh | Insulin prom inh cell count
`C=CCn1c(SCC(=O)/C(C#N)=C(\C)N)nc2sc(C)c(C)c2c1=O` across the screens: i | 0.85 | -1 | 100 | -0.9 | 13 | 56
`CC1(C)CN=C(N(C(=O)Nc2ccccc2)c2ccccc2F)S1` across the screens: i | 1.1 | / | 101 | / | / | /

More results:
Compound	HSV augment	HSV augment primary fold	PKD1 kinase inh	RGS16-Gao	GALR2 agonist	Insulin prom inh	Insulin prom inh cell count
Cc1occc1-c1n[nH]c(=S)n1CC(C)C	i	1.1	-1	110	-5.3	54	91
COc1ccc(NC(=O)CCC(=O)Nc2nnc(C(F)(F)F)s2)c(OC)c1	i	1	-11	97	-1.4	-35	108
NC(=O)C1=C[C@H](c2ccc(C(F)(F)F)cc2)C[C@H](OCc2ccc(CO)cc2)O1	i	0.86	-10	97	/	/	/
Cc1ccc(-c2nc3sc4c(c3c(=O)n2N)CCCC4)cc1	i	0.94	-3	95	-0.6	31	123
Cc1c(CC(=O)O)c(=O)oc2cc3oc4c(c3cc12)CCCC4	i	0.99	/	103	/	/	/
N#Cc1nc(Cc2cccc3ccccc23)oc1NCCN1CCOCC1	i	0.92	-4	103	-0.6	17	50
C=CCn1c(SCc2cccc(F)c2)nc2cc(C(=O)N3CCC(C(N)=O)CC3)ccc2c1=O	i	0.97	-10	102	0.9	-45	53
O=C1/C(=C\c2cccnc2)SC(=S)N1C1CCS(=O)(=O)C1 (stereo not given)	i	0.9	-20	102	-2.2	-121	134
CC(C)(C)OC(=O)NNC(=S)NC1CCCCC1	i	1.1	2	100	/	-37	110
CN(C)Cc1cc(C(C)(C)C)cc(C(C)(C)C)c1O	i	0.88	/	100	/	/	/
O=C(NNc1ncnc2sccc12)c1ccc(Cl)cc1	i	1	/	96	/	/	/
CCN(CC)CCOC(=O)C1(C2CCCCC2)CCCCC1	i	0.85	-13	99	1.1	24	135
CCN(CCC(=O)Nc1cc(OC)cc(OC)c1)Cc1ccccc1	i	1	-22	194	-0.3	/	/
Cn1c(COc2ccc3ccccc3c2)nnc1SCC(=O)O	i	1.1	-2	105	-0.7	/	/
CCn1cc([N+](=O)[O-])c(C(=O)Nc2ccc(Cn3nc(C)cc3C)cc2)n1	i	0.74	4	96	-0.8	-40	76
CN(C(=O)COc1ccccc1C(=O)NCCc1ccccc1)c1ccccc1	/	/	2	99	1.6	0	119
COc1ccc(/C(N)=N/OC(=O)CCCc2ccccc2)cc1	/	/	-2	109	-0.2	-8	50
O=C(Nc1ccc(Cl)c(Cl)c1)C1CC(=O)N(c2ccc(Br)cc2)C1 (stereo not given)	i	0.93	-3	115	0.1	38	206
O=C(c1ccc(Cl)s1)N1CCCC1	i	0.76	4	104	-1.5	-12	120
O=c1c(Cl)c(NS(=O)(=O)c2ccccc2)cnn1-c1ccccc1	i	0.84	/	100	/	/	/
O=C1C2C(c3ccccc3)=NN(c3ccccc3)C2C(=O)N1c1ccccc1 (stereo not given)	i	0.92	-20	103	-0.5	19	89
COc1ccc(Nc2nnc(SCC(=O)Nc3cc(C)on3)s2)cc1	?	/	-9	94	-1.8	24	104
Nc1nc(CN2CCN(Cc3ccccc3)CC2)nc(Nc2ccc3c(c2)OCCO3)n1	i	0.89	-4	101	-1.5	/	/
CCOc1cc(/C=N/NC(=O)C(=O)NCc2cccnc2)ccc1O	i	0.91	1	100	/	/	/
COc1ccc(N2C(=O)C(Cl)=C(Nc3ccccc3O)C2=O)cc1	i	0.87	-3	69	-3.4	-38	124
COc1ccccc1C(=O)NNC(=O)c1ccc(NC(=O)C(C)C)cc1	i	0.95	5	103	/	/	/
COCCn1c(C)cc(C(=O)COC(=O)c2c(C)nn(Cc3ccccc3)c2C)c1C	i	0.86	1	114	0.0	/	/
O=C(Nc1nc(-c2cccnc2)cs1)c1cccc([N+](=O)[O-])c1	i	0.81	-2	105	/	0	144
O=C1CC(c2ccccc2)n2nc(NC(=O)c3cccs3)nc2N1 (stereo not given)	/	/	-5	97	-1.4	14	88
Cc1cc(C)c2nc(NC(=O)[C@@H](NC(=O)c3cccc(S(=O)(=O)N4CCOCC4)c3)C(C)C)sc2c1	i	0.89	-2	111	1.0	12	135
CCN1CCN(CC(=O)N2CCCC(C(=O)c3ccc(Oc4ccccc4)cc3)C2)CC1 (stereo not given)	i	0.87	-7	102	/	-6	120
CCCC1=NN2C(=N)/C(=C\c3cc(C)n(-c4cccc(C)c4)c3C)C(=O)N=C2S1	i	1.2	-2	104	-2.3	17	122
Cc1c(-n2c(SCC(=O)C(C)(C)C)nc3ccccc3c2=O)c(=O)n(-c2ccccc2)n1C	i	0.91	-4	103	/	/	/
CCCc1cc(=O)[nH]c(SCC(=O)N2CCC(C(=O)OCC)CC2)n1	i	0.97	0	84	-0.8	18	39
COc1ccc(Nc2nc3ccccc3n3nnnc23)cc1	i	0.92	-14	98	-2.9	-14	92
O=C(CSc1nnc(-c2ccco2)n1Cc1ccccc1)NC(=O)NCc1ccccc1	i	1.1	3	94	-0.6	21	102
O=C(NC1CCCCCC1)c1ccccc1-c1ccccc1	i	1	-6	109	-0.2	/	/
CCOc1ccc(C)cc1S(=O)(=O)n1nc(C)cc1C	i	0.99	-3	110	/	-5	93
CC(C)NC(=O)c1onc(CSc2cccc(Cl)c2)c1C(=O)O	i	0.97	8	103	-5.0	8	165
CN1CCc2c(sc3c2C(=O)NC(c2ccc(-c4ccc(Cl)cc4)o2)N3)C1 (stereo not given)	?	/	/	104	/	/	/
CCOc1ccc(NC(=O)C2C3CCC4C(CCC32)C4(Cl)Cl)cc1 (stereo not given)	i	0.8	-4	99	/	18	104
CC(C)c1ccc(OCC(O)Cn2cnc3ccccc32)cc1 (stereo not given)	i	0.96	-31	98	-1.9	47	129
CCn1c(C)nc2cc(C(N)=O)ccc21	i	0.89	/	108	/	/	/
Cc1cc(C=NCCO)c(C)n1-c1cc(Cl)ccc1Cl	i	1.1	-1	101	/	-7	108
COCCNC(=O)c1ccc(-n2c(SCc3cccnc3)nc3ccccc3c2=O)cc1	i	0.94	-5	100	/	7	114
COC(=O)C1C(=O)/C(=C(/C)N2CCCC2)C(=O)CC1(C)C (stereo not given)	i	1.1	-3	102	-2.1	36	106
O=C(Cn1c(SCC(=O)N2CCc3ccccc32)nc2ccccc21)NC1CCCC1	i	0.95	4	94	-3.2	-450	42
O=C(C1=C(O)/C(=C/c2ccc(O)cc2)CCC1)C(F)(F)F	i	0.91	-6	100	-2.2	-160	54
Cc1ccc(C)c(NS(=O)(=O)c2cc(C(=O)Nc3cccc(N(C)S(C)(=O)=O)c3)ccc2C)c1	i	1.1	-10	104	-1.9	-54	110
O=C(NNC(=O)c1sccc1-n1cccc1)c1ccc(F)cc1	i	0.95	1	101	/	-15	81

(continued)
Compound	HSV augment	HSV augment primary fold	PKD1 kinase inh	RGS16-Gao	GALR2 agonist	Insulin prom inh	Insulin prom inh cell count
COc1cc2c(cc1NC(=S)NC(=O)c1c(OC)cccc1OC)oc1ccccc12	i	1	-4	105	1.0	-59	98
C[n+]1ccccc1N1CCN(c2ccccc2Cl)CC1	i	1.1	-1	113	-0.5	-36	123
C[N+](C)(C)CCN(Cc1ccc(Cl)cc1)c1ccccn1	i	0.98	-5	101	-2.3	3	66
COC(=O)C1=C(C)N(Cc2ccco2)C(=O)N[C@H]1c1ccccc1	/	/	-3	118	-1.3	10	93
CS(=O)(=O)N1N=C(c2ccco2)CC1c1ccc(Cl)cc1Cl (stereo not given)	i	1	6	99	/	/	/
Cc1ccc(CNC(=O)C(=O)NCC(c2ccco2)N2CCOCC2)cc1 (stereo not given)	i	1.1	-15	102	-0.6	/	/
COc1ccc(C(=O)/C=C(\N)C(F)(F)F)c(O)c1	i	1	-2	106	-2.8	-7	99
CCOc1ccc(N2C(=O)CC(Sc3ccccc3C(=O)O)C2=O)c([N+](=O)[O-])c1 (stereo not given)	i	0.89	-3	101	/	/	/
O=C(O)CCCNC(=O)/C(=C\c1ccc(Cl)cc1)NC(=O)c1ccc(Br)cc1	i	0.85	10	105	/	/	/

Single entries from above.
CCOc1ccc(N2C(=O)CC(Sc3ccccc3C(=O)O)C2=O)c([N+](=O)[O-])c1 (stereo not given) in RGS16-Gao: 101
COC(=O)C1=C(C)N(Cc2ccco2)C(=O)N[C@H]1c1ccccc1 in GALR2 agonist: -1.3
